Bioassay records as filed in PubChem.
HSV replic up – increases HSV replication in cells | HSV replication augmentation in cells, fold increase | maximum fold increase | hit rate 0.005% among 220,000;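 active means peak rise of 1.5-fold or more in the series; inconclusive means self-fluorescent or not available for retest; tested in PC3 cells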;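 further: first round at 10 µM; read as green reporter fluorescence; hits show the peak of a series up to 25 µM; 1 = signal of infected wells without compound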
RGS16-Gao HTS – modulates binding between human RGS16 and Galphao; bead-based flow cytometry RGS16-Galphao binding, fluorescence; actives lie on both sides; binding response (% of control), % at 10 µM; O15492+P09471; hit rate 0.38% among 220,000;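 active means below 25% or above 175%, edge rows of some plates excepted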;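 further: Galphao activated by GDP with aluminum fluoride before binding; 100% = wells without compound and 0% = beads without RGS; some results beyond the cut were filed as inactive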
Target sequence (O15492 whole entry, looked up): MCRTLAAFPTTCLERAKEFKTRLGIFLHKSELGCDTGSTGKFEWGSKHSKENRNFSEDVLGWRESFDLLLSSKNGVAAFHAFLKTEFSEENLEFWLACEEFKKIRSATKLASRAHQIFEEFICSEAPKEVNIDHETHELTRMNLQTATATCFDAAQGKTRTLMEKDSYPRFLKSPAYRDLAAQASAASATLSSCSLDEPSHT
Target sequence (P09471 whole entry, looked up): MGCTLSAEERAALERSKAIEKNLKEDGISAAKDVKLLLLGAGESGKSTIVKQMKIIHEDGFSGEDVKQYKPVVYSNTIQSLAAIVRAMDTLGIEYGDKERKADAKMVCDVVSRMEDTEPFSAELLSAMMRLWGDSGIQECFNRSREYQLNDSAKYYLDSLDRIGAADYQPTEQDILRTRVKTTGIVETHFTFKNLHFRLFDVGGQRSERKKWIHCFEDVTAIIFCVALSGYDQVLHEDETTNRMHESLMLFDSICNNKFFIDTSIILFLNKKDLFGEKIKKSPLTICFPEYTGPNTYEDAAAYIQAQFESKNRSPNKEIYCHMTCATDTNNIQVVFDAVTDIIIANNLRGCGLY
Insulin prom inh – TRM-6 insulin promoter activity inhibition; TRM-6 cells (human fetal islet line), insulin promoter-eGFP reporter, imaging; reporter expression induced with tamoxifen; inhibition, % at 2 µM; hit rate 0.9% among 130,000; AID 1273;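 active means inhibition above the mean plus 3 SD, with well images judged a real hit on visual review, cut at about 60% in these data, passing the limit was not always enough; inconclusive means inhibition over the cutoff but images rejected on review; inactive means inhibition not above the cutoff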
GALR2 agonist – agonists of human galanin receptor 2 (GALR2); O43603; GALR2-expressing cells, agonist activation read-out; activation, %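 (tested at 5 µM)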; hit rate 0.48% among 140,000; AID 803;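 active means above mean plus 3 SD of all compounds, about 5% in these data, not always enough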;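 further: 0% = vehicle buffer wells and 100% = reference agonist at full effect; tested in CHO reporter cells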
Target sequence (O43603 whole entry, looked up): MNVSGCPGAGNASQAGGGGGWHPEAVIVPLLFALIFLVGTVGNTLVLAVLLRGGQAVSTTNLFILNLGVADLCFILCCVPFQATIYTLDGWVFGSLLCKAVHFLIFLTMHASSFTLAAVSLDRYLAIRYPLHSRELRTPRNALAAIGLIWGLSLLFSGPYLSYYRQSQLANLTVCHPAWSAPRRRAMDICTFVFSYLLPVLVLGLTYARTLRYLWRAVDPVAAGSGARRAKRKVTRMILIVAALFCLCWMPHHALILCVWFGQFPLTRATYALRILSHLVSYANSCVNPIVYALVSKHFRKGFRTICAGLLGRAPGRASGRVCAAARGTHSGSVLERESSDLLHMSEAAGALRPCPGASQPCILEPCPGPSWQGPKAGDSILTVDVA
PKD1 kinase inh – blocks activity of human protein kinase D1. Q15139. PKD1 kinase fluorescence polarization assay. inhibition, %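 (about 10 µM by stock and volumes)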. hit rate 0.056% among 200,000;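 active means inhibition of 50% or more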;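 further: controls were vehicle for no effect and a reference inhibitor for full effect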
Insulin prom inh cell count – recorded beside Insulin prom inh, whose call it bears; normalized cell count, %; measured here: cell count, toxicity; reference of the scale not given here;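 cells exposed to compound for 48 h; stained nuclei by imaging scaled within each plate; lower means fewer cells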
HSV replic up primary fold – also measured in HSV replic up; calls as there; fold increase; compound at 10 µM; measured here: primary screen fold increase 10 uM; tested in PC3 cells;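 GFP signal in the first replicate; 1 = infected wells without compound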
Numbers without * were called inactive; i = inactive; u = inconclusive; x = not tested or not shown.

Labels used below – A = HSV replic up; B = HSV replic up primary fold; C = RGS16-Gao HTS; D = Insulin prom inh; E = Insulin prom inh cell count; F = GALR2 agonist; G = PKD1 kinase inh
Cc1nnc(C)n1/N=C/c1ccc(O)cc1
  A: i | B: 1 | C: 103 | D: 49 | E: 67 | F: -1.2 | G: -9
CC(=O)NCC(=O)NC(C(=O)Nc1ccc2c(c1)OCCO2)c1ccc(C)cc1 (configuration not stated)
  A: i | B: 0.9 | C: 99 | D: x | E: x | F: -1.6 | G: -4
COc1ccc(-n2c(CCc3ccccc3)nnc2SCC(=O)c2ccccc2)cc1
  A: i | B: 0.96 | C: 109 | D: 22 | E: 135 | F: -1.0 | G: -2
COc1ccc(-c2nc3c(n2O)CCC/C3=N\O)cc1
  A: x | B: x | C: 121 | D: 0 | E: 111 | F: -1.6 | G: -3
CC1CCCCC1NC(=O)CCCCCn1c(=S)[nH]c2ccccc2c1=O (configuration not stated)
  A: i | B: 0.9 | C: 101 | D: x | E: x | F: x | G: 7
CC(C)(C)n1nnnc1C(c1ccc(C(F)(F)F)cc1)N(Cc1ccc(F)cc1)Cc1ccco1 (configuration not stated)
  A: i | B: 0.98 | C: 101 | D: 35 | E: 99 | F: -1.4 | G: -1
COc1ccc(Br)cc1/C=C/C(=O)Nc1c(C)cccc1C
  A: i | B: 0.87 | C: 104 | D: x | E: x | F: -1.3 | G: 6
CCOc1ccccc1NC(=O)NCCC1=CCCCC1
  A: i | B: 1 | C: 99 | D: -32 | E: 120 | F: x | G: 4
COc1ccc2oc(=O)c(/C(C)=N/Nc3ccccc3)cc2c1
  A: i | B: 1.1 | C: 97 | D: -24 | E: 123 | F: x | G: -5
O=C(O)CC(c1cccc([N+](=O)[O-])c1)N1Cc2ccccc2C1=O (configuration not stated)
  A: i | B: 1 | C: 96 | D: x | E: x | F: x | G: -2
CCOc1cc2[nH]c(=S)n(CCCN3CCCC3=O)c(=O)c2cc1OCC
  A: i | B: 0.88 | C: 95 | D: -44 | E: 43 | F: 0.2 | G: 2
COC(=O)CC1SC(=O)NC1=Nc1cccc(C)c1 (configuration not stated)
  A: i | B: 0.95 | C: 100 | D: 11 | E: 143 | F: -2.1 | G: -2
COCCn1c(-c2ccc(Br)cc2)nc2oc3cc(OC)ccc3c(=O)c2c1=O
  A: i | B: 0.95 | C: 99 | D: x | E: x | F: x | G: x
CCOC(=O)c1c(N)c(C#N)cn1-c1ccccc1
  A: i | B: 1.1 | C: 99 | D: 33 | E: 37 | F: -0.1 | G: -6
Cc1nc2ncnn2c(Nc2ccc3c(c2)OCO3)c1Cc1ccccc1
  A: i | B: 1.2 | C: 105 | D: x | E: x | F: 0.1 | G: -13
Cc1nc2ccccc2c2oc(C(=O)NCCN3CCCCC3C)cc12 (configuration not stated)
  A: i | B: 0.89 | C: 103 | D: x | E: x | F: -0.6 | G: -7
COC(=O)c1cccc(Nc2ncnc3ccc(C)cc23)c1
  A: i | B: 0.75 | C: 125 | D: 29 | E: 144 | F: -0.5 | G: 3
CCSc1nnc(NC(=O)CSc2nnc(CNC(=O)c3ccc(OC)c(OC)c3)o2)s1
  A: i | B: 0.97 | C: 99 | D: -4 | E: 84 | F: -1.2 | G: -5
CCCC(C)C(=O)OCC(=O)Nc1ccc(Br)cc1 (configuration not stated)
  A: i | B: 1.1 | C: 98 | D: 41 | E: 105 | F: x | G: 0
Cc1ccccc1-n1c(C)c(C#N)c(=O)c(-[n+]2ccccc2)c1[S-]
  A: i | B: 0.99 | C: 97 | D: x | E: x | F: x | G: -4
O=C(C1CCN(C2CCN(Cc3ccc4cc(F)ccc4n3)CC2)CC1)N1CCCC1
  A: i | B: 1.2 | C: 98 | D: x | E: x | F: x | G: 3
Cc1ccc(C(C(=O)NC(C)(C)C)N(Cc2ccco2)C(=O)CCC(=O)Nc2nccs2)cc1 (configuration not stated)
  A: x | B: x | C: x | D: 69 | E: 156 | F: -1.2 | G: -5
CCOc1cc(/C=N/N=C2/NC(=O)C(CC(=O)O)S2)ccc1OCc1ccc(Cl)cc1 (configuration not stated)
  A: i | B: 1 | C: 100 | D: x | E: x | F: x | G: -5
Cc1nc2nc(COc3ccccc3)[nH]n2c(=O)c1Cc1ccccc1
  A: i | B: 0.97 | C: 98 | D: -73 | E: 78 | F: -1.0 | G: -5
COc1ccc(-c2nc(CN(Cc3cnn(C)c3)C(C)C)c(C)o2)c(OC)c1
  A: i | B: 0.87 | C: 138 | D: 35 | E: 52 | F: x | G: -3
Cc1cccc2nc(CSc3ccccc3N)cn12
  A: i | B: 0.93 | C: 100 | D: -119 | E: 113 | F: 0.2 | G: -14
CCOC(=O)C(CC)/C(C)=N\NC(=O)c1ccccc1O (configuration not stated)
  A: i | B: 0.97 | C: 87 | D: -97 | E: 145 | F: -0.6 | G: 2
Nc1ccc2c(c1)Cc1cc([N+](=O)[O-])ccc1-2
  A: u | B: x | C: 101 | D: x | E: x | F: x | G: -2
CSc1ccc(Cl)c(C(=O)OCC(=O)N(C)CCC#N)c1
  A: i | B: 1 | C: 98 | D: x | E: x | F: x | G: -7
COCCSc1nnc(NS(=O)(=O)c2ccccc2)s1
  A: i | B: 0.99 | C: 101 | D: -26 | E: 87 | F: x | G: 7
CC12CCC(c3c(C(=O)O)nn(-c4ccc(F)cc4)c31)C2(C)C (configuration not stated)
  A: i | B: 0.97 | C: 96 | D: 22 | E: 66 | F: -1.3 | G: -7
CCOC(=O)N1CCN(C(=O)CS(=O)(=O)c2cn(Cc3ccc(Cl)cc3)c3ccccc23)CC1
  A: i | B: 0.88 | C: 103 | D: x | E: x | F: -1.5 | G: -18
CN(C1CCCCC1)S(=O)(=O)c1ccc(S(=O)(=O)N2CCN(C(=O)c3ccccc3F)CC2)cc1
  A: i | B: 0.98 | C: 104 | D: x | E: x | F: -1.1 | G: -2
CCCC(c1nnnn1CCc1ccccc1)N1CCC(C(N)=O)CC1 (configuration not stated)
  A: i | B: 0.84 | C: 107 | D: 14 | E: 89 | F: -1.7 | G: -9
O=C(COC(=O)c1cn(-c2ccccc2)nc1-c1ccc(F)cc1)Nc1ncc(Cl)cc1Cl
  A: i | B: 1.3 | C: 98 | D: x | E: x | F: -0.7 | G: -5
CC1=NN(C(=O)Cn2nc([N+](=O)[O-])cc2C)C(O)(C(F)(F)F)C1 (configuration not stated)
  A: i | B: 0.93 | C: 95 | D: -17 | E: 129 | F: -0.1 | G: -4
COc1ccccc1N1CCN(C(=O)Cn2nnc(-c3cccs3)n2)CC1
  A: i | B: 0.98 | C: 106 | D: x | E: x | F: 0.2 | G: -1
CCCCCCCCCC(=O)Nn1cnc2ccccc2c1=O
  A: i | B: 1.1 | C: 79 | D: 20 | E: 74 | F: x | G: 2
COCCNC(=O)CSc1ccccc1C(=O)NCC1CCCCC1
  A: i | B: 0.93 | C: 92 | D: x | E: x | F: x | G: -1
Cc1cc(C)n(-c2nc3ccccc3c(=O)n2OCC(=O)Nc2c(C)cccc2C)n1
  A: i | B: 0.94 | C: i | D: x | E: x | F: -2.2 | G: -6
COc1ccc(C(=O)Nc2cccc(N(C)S(C)(=O)=O)c2)cc1OC
  A: i | B: 0.96 | C: 99 | D: -2 | E: 88 | F: -0.9 | G: 1
COc1ccc(/C=C/c2nnc(NC(=O)C(C)C)s2)cc1
  A: i | B: 0.85 | C: 97 | D: x | E: x | F: x | G: x
Cc1c(Cl)cccc1N1C(=O)CC(N(O)c2ccccc2)C1=O (configuration not stated)
  A: i | B: 0.72 | C: 99 | D: 27 | E: 107 | F: -3.1 | G: 26
O=C(c1ccco1)N1N=C(c2ccc(Cl)cc2)CC1(O)C(F)(F)F (configuration not stated)
  A: i | B: 0.85 | C: 103 | D: x | E: x | F: x | G: 0
CCOC(=O)C1CCN(C(=O)c2cccs2)CC1
  A: i | B: 0.94 | C: 103 | D: x | E: x | F: x | G: -2
Cn1c(SCC(=O)N2CCOCC2)nc2cccnc21
  A: i | B: 1 | C: 99 | D: x | E: x | F: 0.6 | G: -9
CCOC(=O)Cc1nnc(Nc2cccc(O)c2)c2ccccc12
  A: i | B: 0.98 | C: 159 | D: -3 | E: 110 | F: -1.3 | G: -4
Cc1ccc2c(c1)C(c1ccc(F)cc1)N(C(=O)c1cc3ccccc3oc1=O)CC(=O)N2 (configuration not stated)
  A: x | B: x | C: 80 | D: -10 | E: 124 | F: 0.5 | G: -7
CSc1ccc(/C=C/C(=O)NC(=O)c2ccccc2O)cc1
  A: i | B: 0.9 | C: 95 | D: -50 | E: 164 | F: x | G: -2
Cc1nc2oc3c(NCc4ccccc4)ncnc3c2c2c1COC(C)(C)C2
  A: x | B: x | C: 104 | D: x | E: x | F: 2.1 | G: -9

The list continues:
Labels used below – A = HSV replic up; B = HSV replic up primary fold; C = RGS16-Gao HTS; D = Insulin prom inh; E = Insulin prom inh cell count; F = GALR2 agonist; G = PKD1 kinase inh
COC(=O)c1cc2c(ccn2-c2ccc(F)cc2)n1Cc1ccc(OC)cc1
  A: i | B: 0.96 | C: 102 | D: 30 | E: 125 | F: 1.3 | G: -14
O=S(=O)(Oc1ccccc1/C=N/n1cnnc1)c1ccccc1
  A: i | B: 0.96 | C: 98 | D: x | E: x | F: x | G: 0
Cc1ccc2ncnc(NCCC(=O)O)c2c1
  A: i | B: 0.76 | C: 111 | D: -210 | E: 30 | F: -0.8 | G: 0
Cc1ccc(-c2nc(NC(=O)CSc3nnnn3-c3ccccc3)ns2)cc1
  A: i | B: 0.71 | C: 95 | D: 6 | E: 71 | F: 0.2 | G: -8
CC(C(=O)NCCc1ccc(F)cc1)N1CCN(Cc2ccccc2)CC1 (configuration not stated)
  A: i | B: 1.1 | C: 97 | D: x | E: x | F: x | G: -11
C/C(=C\C(=O)OCC(=O)NCc1ccccc1)C(=O)OCC(=O)NCc1ccccc1
  A: i | B: 1.1 | C: 65 | D: 13 | E: 62 | F: -1.0 | G: -4
O=C(COC(=O)c1ccc(O)cc1)Nc1ccc(OC(F)F)cc1
  A: i | B: 0.86 | C: 93 | D: x | E: x | F: x | G: -1
COc1cc(NC(=S)N2CCN(c3ccccn3)CC2)c(OC)cc1Cl
  A: i | B: 0.84 | C: 96 | D: 30 | E: 109 | F: -1.6 | G: -4
COc1ccc(OCc2nnc(SCC(N)=O)n2N)cc1
  A: i | B: 1 | C: 102 | D: 15 | E: 98 | F: -2.8 | G: -4
Cc1ccc(NC(=O)C(=O)NCCc2c[nH]c3ccccc23)cc1C
  A: i | B: 0.92 | C: 111 | D: x | E: x | F: x | G: -4
O=[N+]([O-])c1ccc(Oc2ccc(C(F)(F)F)cn2)cc1
  A: i | B: 1.2 | C: 102 | D: -53 | E: 22 | F: x | G: -4
Nc1ccc(-c2cnc(-c3ccc(N)cc3)nc2)cc1
  A: i | B: 0.98 | C: 93 | D: -21 | E: 103 | F: -1.0 | G: 5
COc1ccc(Cc2n[nH]c(=S)n2-c2ccc3c(c2)OCCO3)cc1
  A: i | B: 0.99 | C: 103 | D: x | E: x | F: x | G: 1
COC(=O)CN1C(=O)CC(C)(C)Sc2ccccc21
  A: x | B: x | C: 102 | D: -20 | E: 135 | F: -1.0 | G: -4
CC(C)C(=O)Nc1cccc(C(=O)Nc2ccccc2C(=O)O)c1
  A: i | B: 0.7 | C: 98 | D: -38 | E: 108 | F: 1.9 | G: -7
CCOC(=O)c1sc2nc3n(c(=O)c2c1C)CCCCC3
  A: x | B: x | C: 103 | D: 35 | E: 131 | F: -0.6 | G: -3
Cc1ccc(NC(=S)N2CCOCC2)cc1
  A: i | B: 1.1 | C: 88 | D: 13 | E: 45 | F: -0.6 | G: 0
CCCCn1nc2cc(C(=O)N(CC)c3ccc(OC)cc3)ccc2c1OCC
  A: i | B: 0.87 | C: 99 | D: 9 | E: 183 | F: -0.5 | G: -8
CCOC(=O)c1c(NC(=O)COC)sc(C(C)=O)c1C
  A: i | B: 1.1 | C: 111 | D: x | E: x | F: -0.3 | G: 3
O=S(=O)(/C=C/c1ccccc1)Nc1cccc(S(=O)(=O)NC2=NCCC2)c1
  A: i | B: 0.93 | C: 101 | D: 15 | E: 117 | F: x | G: 4
Brc1ccc(-c2nnc(-c3ccc4c(c3)OCO4)o2)o1
  A: i | B: 0.95 | C: 100 | D: -34 | E: 100 | F: -2.6 | G: -1
